High-throughput results (PubChem BioAssay)
GLA inh pH 4.5: inhibitors of human alpha-galactosidase A at pH 4.5; P06280; purified enzyme, 4-MU-alpha-Gal fluorescence, pH 4.5; activity change, negative = inhibition, % at 105 µM; 230,000 tested, under 10 active; AID 1467; inconclusive = small, poorly fitted or top-dose-only inhibition, or a rising curve; inactive = flat fitted curve, though single readings scatter; no compound was filed as active;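 also: 0% = full activity with enzyme and -100% = basal without enzyme; dose as in the result columns while the protocol names 77 µM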
miR-21 FLuc: miR-21 reporter, rising signal; HeLa miR-21 FLuc reporter, luciferase, 48 h; Potency, µM (top dose mostly 38.3 µM), inactives show top-dose reporter change, positive = more light; 340,000 tested, under 10 active; AID 2288; active = well fitted rising curve with a large enough effect; inconclusive = small, poorly fitted or top-dose-only effect; inactive = no such curve, though single readings can be large or run the other way;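 also: % of control where 0% means no effect; miR-21 action dims this reporter so a rising signal means less miR-21 action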
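HeLa cells stably expressing CMV-driven firefly luciferase with a downstream miR-21 binding sequence, endogenously expressing miR-21, were treated with titrations (up to about 40uM final) for 48 hours at 37 degree Celsius. Luciferase luminescence was read after lysis.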
Rango complex inh: Rango-importin beta binding inhibition | Rango CFP/YFP FRET sensor + importin beta, 45 min | Potency, µM (series often up to 92.2 µM), without a hit: top-dose inhibition of complex formation | 0.031% of 340,000 active; active = rising FRET ratio curve, often small or poorly fitted; inconclusive = mostly compound fluorescence or quenching in the first reads; inactive = flat curves in all reads;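 also: potency is read from the fitted curve at half-maximal effect; 0% = DMSO wells and 100% = buffer wells lacking importin beta; nearly all actives have a fitted effect of over 15% in size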
Target sequence (Q14974 whole entry, looked up): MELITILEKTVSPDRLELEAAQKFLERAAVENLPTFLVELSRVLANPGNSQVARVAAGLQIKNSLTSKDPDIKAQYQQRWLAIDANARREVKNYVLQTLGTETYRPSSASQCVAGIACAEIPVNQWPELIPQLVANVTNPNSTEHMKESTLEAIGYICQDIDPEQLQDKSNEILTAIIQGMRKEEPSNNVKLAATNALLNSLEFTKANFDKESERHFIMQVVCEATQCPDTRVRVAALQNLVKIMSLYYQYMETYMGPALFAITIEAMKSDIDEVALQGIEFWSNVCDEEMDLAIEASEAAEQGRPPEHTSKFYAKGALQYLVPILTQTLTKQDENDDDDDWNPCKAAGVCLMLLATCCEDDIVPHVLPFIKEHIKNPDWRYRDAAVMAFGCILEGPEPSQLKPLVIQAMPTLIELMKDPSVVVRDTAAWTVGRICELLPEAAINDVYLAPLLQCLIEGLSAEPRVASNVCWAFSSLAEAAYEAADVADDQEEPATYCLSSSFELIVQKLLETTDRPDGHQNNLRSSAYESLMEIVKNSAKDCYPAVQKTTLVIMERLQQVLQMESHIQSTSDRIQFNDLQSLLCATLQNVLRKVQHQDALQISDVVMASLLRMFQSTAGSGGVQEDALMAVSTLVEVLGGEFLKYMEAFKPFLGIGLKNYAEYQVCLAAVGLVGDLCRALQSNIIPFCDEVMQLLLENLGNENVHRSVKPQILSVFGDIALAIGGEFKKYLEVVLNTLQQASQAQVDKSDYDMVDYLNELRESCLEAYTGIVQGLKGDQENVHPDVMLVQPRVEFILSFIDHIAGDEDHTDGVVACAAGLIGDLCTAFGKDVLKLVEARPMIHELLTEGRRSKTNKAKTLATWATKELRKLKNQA
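FRET biosensor (snurportin 1 IBB flanked by EYFP and cerulean), 50 nM, with compound 5 min, then 0.125 microM importin beta in PBS, 1 mM DTT, 0.02% Tween-20, 0.1% BSA. CFP/YFP ratio read after 45 min at room temperature; pre-read flags interference.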
Rango dissoc inh: prevents RanGTP from dissociating the Rango-importin beta complex; O95149+P62826; Biochemical FRET Rango-importin beta, RanGTP-induced dissociation; Potency, µM (top dose mostly 46.1 µM), for inactives: top-dose activity change, negative = inhibition; 0.071% of 340,000 active; AID 540253; active means falling FRET ratio curve, often poorly fitted, with flat reads before Ran was added; inconclusive means other falling curves, or compound fluorescence or quenching; inactive means flat or rising ratio curve;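 also: potency is read from the fitted curve at half-maximal effect; % of control where 0% means no effect; nearly all actives have a fitted effect of over 45% in size; -100% = wells without RanGTP and RCC1; the record marks most hits as doubtful in a second field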
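Compounds preincubate 5 min with complex of recombinant Rango and importin beta in PBS with 1 mM DTT. Ran (0.6 uM) loaded with 2 mM GTP plus 0.2 uM RCC1 starts dissociation; FRET is recorded 45 min later.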
The depositor's hits bear a star.

O=C1NCCCC1C(=O)N/N=C/c1ccccc1 (centres undefined) was read as GLA inh pH 4.5 11, miR-21 FLuc -9%, Rango complex inh -3.2% and Rango dissoc inh 3%.
`Cc1cc(C)cc(C(=O)OCC(=O)NC(=O)NC2CCCC2)c1` gave Rango complex inh -1.8% and Rango dissoc inh -4%.
For Cc1ccc2cc3cc(C(=O)NCc4ccc5c(c4)OCO5)oc3nc2c1 the results were GLA inh pH 4.5 -6, miR-21 FLuc 1%, Rango complex inh 2.4% and Rango dissoc inh -13%.
`CC(=O)Nc1ccc(OCC(=O)c2cc(C)ccc2C)cc1` gave GLA inh pH 4.5 4, miR-21 FLuc -8%, Rango complex inh 1.0% and Rango dissoc inh 3%.
`Cc1cccc(/N=C/c2nc(-c3ccccc3Br)oc2O)n1` gave GLA inh pH 4.5 -23, miR-21 FLuc -28%, Rango complex inh inconclusive and Rango dissoc inh -25%.
Screening Cc1ccc(C(=O)CNc2ccccc2)cc1 returned miR-21 FLuc -29%, Rango complex inh 2.3% and Rango dissoc inh -3%.
Screening N#Cc1ccccc1NC(=O)CSC1=Nc2ccccc2C2CC=NN12 (centres undefined) returned GLA inh pH 4.5 2, miR-21 FLuc 0%, Rango complex inh -7.6% and Rango dissoc inh -5%.
Screening Cc1ccc2c(=O)c(C(=O)c3ccc(F)cc3)cn(CC(=O)NCc3ccco3)c2n1 returned miR-21 FLuc 3%, Rango complex inh inconclusive and Rango dissoc inh 11%.
CCc1cc(=O)oc2cc(C)cc(OCC(=O)NCCCN3CCOCC3)c12 was read as miR-21 FLuc 1%, Rango complex inh 0.6% and Rango dissoc inh -10%.
Cc1ccc(S(=O)(=O)N2CCC(C(=O)N[C@@H](C)C(=O)NCC3CCCO3)CC2)cc1 (some centres undefined) was read as GLA inh pH 4.5 5, miR-21 FLuc -1%, Rango complex inh -2.4% and Rango dissoc inh -5%.
`COc1ccc(-c2nn(-c3ccccc3)cc2CN2CCCO2)c(F)c1` gave GLA inh pH 4.5 -4, miR-21 FLuc 2%, Rango complex inh 1.7% and Rango dissoc inh -6%.
COc1ccc(-c2noc(CCN3C(=O)c4ccccc4C3=O)n2)cc1OC was read as GLA inh pH 4.5 10, miR-21 FLuc -3%, Rango complex inh -2.7% and Rango dissoc inh -14%.
`N=C1C(c2ccccc2)=C(O)CN1c1ccccc1` gave GLA inh pH 4.5 4, miR-21 FLuc -13%, Rango complex inh 0.0% and Rango dissoc inh 30%.
COCc1nnc(NC(=O)COc2ccc3c(c2)OCO3)s1 was read as miR-21 FLuc -3%, Rango complex inh 0.8% and Rango dissoc inh 18%.
Cc1ccc(-c2nc(CN(Cc3cnn(C)c3)C(C)C)c(C)o2)o1 was read as GLA inh pH 4.5 2, miR-21 FLuc -4%, Rango complex inh -0.2% and Rango dissoc inh -6%.
For CC(=O)Nc1cccc(-c2nnc(SCC(=O)N3CCCCC3)n2C)c1 the results were GLA inh pH 4.5 -1, miR-21 FLuc -9%, Rango complex inh 5.3% and Rango dissoc inh 15%.
For COc1ccc(C(=O)Nc2ccc(Cl)cc2C(=O)NCCO)cc1 the results were GLA inh pH 4.5 -3, miR-21 FLuc -3%, Rango complex inh -0.3% and Rango dissoc inh 3%.
`Cc1ccc(NC(=S)/N=C(\N)Nc2nc(C)c3cc(C)ccc3n2)c(C)c1` gave GLA inh pH 4.5 7, miR-21 FLuc 6%, Rango complex inh -3.9% and Rango dissoc inh 1%.
`CCn1c(SCC(=O)c2ccc(C)cc2)nnc1-c1ccncc1` gave GLA inh pH 4.5 -17, miR-21 FLuc 1%, Rango complex inh 3.0% and Rango dissoc inh -8%.
For Cc1ccc(Cc2nnc(SCC(=O)Nc3ccc(C)cc3C)[nH]c2=O)cc1 the results were Rango complex inh -3.9% and Rango dissoc inh 1%.

Structural class: those above containing an aryl thioether with sulfur outside any ring (3)
For CC(=O)Nc1cccc(-c2nnc(SCC(=O)N3CCCCC3)n2C)c1 the results were GLA inh pH 4.5 -1, miR-21 FLuc -9%, Rango complex inh 5.3% and Rango dissoc inh 15%.
`CCn1c(SCC(=O)c2ccc(C)cc2)nnc1-c1ccncc1` gave GLA inh pH 4.5 -17, miR-21 FLuc 1%, Rango complex inh 3.0% and Rango dissoc inh -8%.
For Cc1ccc(Cc2nnc(SCC(=O)Nc3ccc(C)cc3C)[nH]c2=O)cc1 the results were Rango complex inh -3.9% and Rango dissoc inh 1%.

(next part)
`O=C(NCc1cccs1)c1cc2c(s1)CS(=O)(=O)C2` gave GLA inh pH 4.5 4, miR-21 FLuc -8%, Rango complex inh 0.4% and Rango dissoc inh -5%.
CCC(=O)Nc1cccc(NC(=O)c2ccc3c(c2)OCCO3)c1 was read as GLA inh pH 4.5 5, miR-21 FLuc -29%, Rango complex inh -0.7% and Rango dissoc inh 0%.
For O=C(c1ccc(Cl)c(S(=O)(=O)N2CCc3ccccc3C2)c1)N1CCN(c2ccccc2)CC1 the results were GLA inh pH 4.5 -10, miR-21 FLuc 11%, Rango complex inh -2.2% and Rango dissoc inh 18%.
`O=C(Cc1cccs1)N1CCN(S(=O)(=O)c2ccc(F)c(F)c2)CC1` gave Rango complex inh inconclusive and Rango dissoc inh -2%.
For CCOC(=O)Cc1csc(NS(=O)(=O)c2ccc(Br)cc2)n1 the results were GLA inh pH 4.5 5, miR-21 FLuc 3%, Rango complex inh -0.5% and Rango dissoc inh -10%.
CC1(C)OC(=O)C(=NNc2ccccc2[N+](=O)[O-])C(=O)O1 was read as GLA inh pH 4.5 0, miR-21 FLuc 4%, Rango complex inh 0.9% and Rango dissoc inh -4%.
Screening Cc1nn(C)cc1NC(=O)c1cc2nc(-c3ccco3)cc(C(F)(F)F)n2n1 returned GLA inh pH 4.5 1, miR-21 FLuc -4%, Rango complex inh -3.1% and Rango dissoc inh -9%.
Screening CCCNC(=S)Nc1ccc(Cl)cc1Cl returned GLA inh pH 4.5 2, miR-21 FLuc -14%, Rango complex inh 1.8% and Rango dissoc inh 25%.
`COc1cc(SC)ccc1C(=O)Nc1c(C)cccc1C` gave GLA inh pH 4.5 -6, miR-21 FLuc -17%, Rango complex inh -4.8% and Rango dissoc inh 9%.
CCc1ccccc1N1CC23C=CC(O2)C(C(=O)OC)C3C1=O (centres undefined) was read as GLA inh pH 4.5 -5, miR-21 FLuc -2%, Rango complex inh 1.8% and Rango dissoc inh -8%.
Cc1cccc(N2CCN(S(=O)(=O)c3ccc4c(c3)NC(=O)CS4)CC2)c1C was read as miR-21 FLuc 12%, Rango complex inh 2.9% and Rango dissoc inh -10%.
`COc1ccccc1CN1CCNC(=O)C1CC(=O)NCCC1=CCCCC1` (centres undefined) gave GLA inh pH 4.5 11, miR-21 FLuc -1%, Rango complex inh 1.2% and Rango dissoc inh -12%.
CC(=O)Nc1cccc(CNCc2cccc(NC(C)=O)c2)c1 was read as GLA inh pH 4.5 -4, miR-21 FLuc -1%, Rango complex inh 1.3% and Rango dissoc inh 7%.
Screening Cc1cc(OCC(=O)N(Cc2ccco2)C2CCS(=O)(=O)C2)ccc1Cl (centres undefined) returned GLA inh pH 4.5 6, miR-21 FLuc -1%, Rango complex inh -1.4% and Rango dissoc inh -8%.
Screening COc1cccc(/C=C/C(=O)Nc2ccc3c(c2)OCCO3)c1 returned GLA inh pH 4.5 5, miR-21 FLuc -29%, Rango complex inh 0.6% and Rango dissoc inh -4%.
COc1ccc(CNC(=O)C(C)OC(=O)C23CC4CC(CC(O)(C4)C2)C3)cc1 (centres undefined) was read as GLA inh pH 4.5 -1, miR-21 FLuc -2%, Rango complex inh inconclusive and Rango dissoc inh 13%.
COc1ccc(C(CNC(=O)COc2ccc(F)cc2Cl)N2CCOCC2)cc1 (centres undefined) was read as Rango complex inh inconclusive and Rango dissoc inh 30%.
Screening O=C(CSc1nnc(-c2ccc(O)cc2)n1Cc1ccccc1)NNC(=O)c1ccc(Br)cc1 returned GLA inh pH 4.5 -8, miR-21 FLuc -4%, Rango complex inh -0.7% and Rango dissoc inh -1%.
Screening COc1ccc(CNC(=O)OCCN2CCN(Cc3ccccc3)CCC2=O)cc1 returned GLA inh pH 4.5 -12, miR-21 FLuc 0%, Rango complex inh 1.1% and Rango dissoc inh -7%.
Screening N#Cc1c(SCC(=O)Nc2ccc(Cl)cc2Cl)sc2c(O)cc(=O)[nH]c12 returned miR-21 FLuc -15%, Rango complex inh inconclusive and Rango dissoc inh -20%.
CCn1c(NC(=O)c2ccccc2)c(-c2cccs2)c(=O)c2ccccc21 was read as GLA inh pH 4.5 2, miR-21 FLuc 5%, Rango complex inh 1.9% and Rango dissoc inh 17%.
`O=c1c2ccccc2nc(-c2ccccc2)n1/N=C/c1ccc([N+](=O)[O-])cc1` gave GLA inh pH 4.5 2, miR-21 FLuc -1%, Rango complex inh -0.9% and Rango dissoc inh -8%.
O=c1cc(-c2ccc(Cl)cc2)[nH]c2ccccc12 was read as GLA inh pH 4.5 2, miR-21 FLuc -2%, Rango complex inh -3.5% and Rango dissoc inh -17%.
Screening Cc1cccc(Oc2nc(-c3ccccn3)nc3ccccc23)c1 returned GLA inh pH 4.5 -6, miR-21 FLuc 19%, Rango complex inh -3.0% and Rango dissoc inh 17%.
CC(C)Oc1ccc(C(CC(=O)O)c2ccc(F)cc2)cc1 (centres undefined) was read as GLA inh pH 4.5 3, miR-21 FLuc -2%, Rango complex inh 1.7% and Rango dissoc inh 0%.
Screening O=C1[C@@H]2C(c3cccnc3)=NO[C@@H]2C(=O)N1c1ccc(Br)cc1 returned GLA inh pH 4.5 1, miR-21 FLuc 1%, Rango complex inh 7.0% and Rango dissoc inh 0%.
`CN(C)/C=N/NC(=O)c1ccccc1` gave GLA inh pH 4.5 -2, miR-21 FLuc -7%, Rango complex inh -0.4% and Rango dissoc inh 17%.
Screening O=C(CCc1nc2ccccc2c(=O)[nH]1)N1CCN(S(=O)(=O)c2cc(Cl)ccc2Cl)CC1 returned Rango complex inh -5.1% and Rango dissoc inh 12%.
For CCOc1ccc(/C=N/NC(=O)C(C)N(c2ccc(OC)cc2)S(C)(=O)=O)cc1 (centres undefined) the results were GLA inh pH 4.5 -2, miR-21 FLuc -4%, Rango complex inh -2.2% and Rango dissoc inh -5%.
For CCCc1ccc(C(=O)Cn2nc(C(=O)O)c3ccccc3c2=O)cc1 the results were GLA inh pH 4.5 1, miR-21 FLuc -1%, Rango complex inh 0.9% and Rango dissoc inh 15%.
NC(=O)NC(=O)COC(=O)/C=C/c1cccs1 was read as GLA inh pH 4.5 1, miR-21 FLuc -8%, Rango complex inh 0.6% and Rango dissoc inh 11%.
`CN(C)CC/C=C1/c2cc(F)ccc2Sc2ccc(Cl)cc21` gave Rango complex inh -1.7% and Rango dissoc inh 25%.
For Cc1ccc(C)c2[nH]c(=O)c(CCNC(=O)c3cccs3)cc12 the results were GLA inh pH 4.5 9, miR-21 FLuc -17%, Rango complex inh -5.0% and Rango dissoc inh -17%.
Screening Nc1cc(=O)[nH]c(SCCSc2ccc(F)cc2)n1 returned miR-21 FLuc -10%, Rango complex inh -2.9% and Rango dissoc inh -1%.
`O=S(=O)(c1ccccc1)n1nc(-c2ccccc2)nc1NCc1ccco1` gave GLA inh pH 4.5 -12, miR-21 FLuc -31%, Rango complex inh -1.5% and Rango dissoc inh inconclusive.
`COc1ccc(CCn2ccc(O)c(Cc3ccc(Cl)cc3Cl)c2=O)cc1OC` gave GLA inh pH 4.5 1, miR-21 FLuc -1%, Rango complex inh -1.5% and Rango dissoc inh 11%.
`COc1ccc(CC(=O)NNC(=O)c2ccco2)cc1OC` gave miR-21 FLuc -2%, Rango complex inh 2.7% and Rango dissoc inh 2%.
`COc1ccc2nc(NC(=O)CSC3=NCCS3)sc2c1` gave GLA inh pH 4.5 0, miR-21 FLuc -10%, Rango complex inh 2.4% and Rango dissoc inh -5%.
For COc1ccc(OC)c(NC(=O)C(=O)/C=C(\O)c2cc(OC)ccc2OC)c1 the results were GLA inh pH 4.5 -7, miR-21 FLuc -7%, Rango complex inh inconclusive and Rango dissoc inh -10%.
Screening CC(C)(C)c1ccc(C2(C)NC(=O)N(CC(=O)Nc3ccc4c(c3)OCO4)C2=O)cc1 (centres undefined) returned GLA inh pH 4.5 3, miR-21 FLuc -4%, Rango complex inh 1.6% and Rango dissoc inh -5%.

These rows are one share of the data, so the mix of outcomes need not match the whole.
